CapD inh – Bacillus anthracis CapD inhibitors, primary screen, biochemical, fluorescence intensity. CapD gamma-glutamyltranspeptidase (Bacillus anthracis Ames Ancestor). purified CapD enzyme, fluorescence intensity read-out; stronger effect = lower value; some hits fall short of the stated cut. z-score (no concentration beside the values). 140,000 compounds, 0.23% hits;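 active means z-score under -4 in either of two replicates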;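 further: stock transfer was 100 nL into about 40 µL; score is relative to mean and spread of the plate; one replicate is shown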
AID504770 – growth inhibition of E. coli YBA685, primary screen, V. cholerae RctB inhibitors. 130,000 compounds, 0.27% hits. z-score (concentration not given with the values). AID 504770, 2011. E. coli YBA685 rctB-dependent plasmid, OD600 growth, 3 h; stronger effect = lower value;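 active means z-score under -2 on both plates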;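 further: wells of about 30 µL received 100 nL stock; score is relative to mean and SD of the test wells; the first replicate is given; strong numbers were not always called active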
* hit, by the source's call.

A first look:
Screening CCCCn1c(=O)c2oc3ccccc3c2n(Cc2cccc(Cl)c2)c1=O returned CapD inh 1.75 and AID504770 -0.65.
O=C(NNc1nccc(C(F)(F)F)n1)Nc1cccc(Cl)c1 was read as CapD inh 0.195 and AID504770 -0.5.
Screening Cn1nc(CC(=O)Nc2cccc3ncccc23)c2ccccc2c1=O returned AID504770 -0.65.
Nc1nc2c(C(=O)N3CCOCC3)nnn2c2ccccc12 was read as CapD inh 96.5 and AID504770 -0.85.
For CCOc1ccc(NC(=O)CCNC(=O)Cn2ccc3ccccc3c2=O)cc1 the results were CapD inh -0.045 and AID504770 2.35.
`Cc1ccccc1COc1ncnc2cc(Cl)ccc12` gave CapD inh -0.065 and AID504770 -0.2.

The whole of this part, from the first entry:
Screening CCCCn1c(=O)c2oc3ccccc3c2n(Cc2cccc(Cl)c2)c1=O returned CapD inh 1.75 and AID504770 -0.65.
O=C(NNc1nccc(C(F)(F)F)n1)Nc1cccc(Cl)c1 was read as CapD inh 0.195 and AID504770 -0.5.
Screening Cn1nc(CC(=O)Nc2cccc3ncccc23)c2ccccc2c1=O returned AID504770 -0.65.
Nc1nc2c(C(=O)N3CCOCC3)nnn2c2ccccc12 was read as CapD inh 96.5 and AID504770 -0.85.
For CCOc1ccc(NC(=O)CCNC(=O)Cn2ccc3ccccc3c2=O)cc1 the results were CapD inh -0.045 and AID504770 2.35.
`Cc1ccccc1COc1ncnc2cc(Cl)ccc12` gave CapD inh -0.065 and AID504770 -0.2.
Screening CC(=O)c1noc(C)c1C(=O)Nc1ccc(I)cn1 returned CapD inh -0.055.
Cc1ccc(Cn2cccc(NC(=O)c3ccncc3)c2=O)cc1 was read as AID504770 0.65.
CCCN1C(=O)c2cc(C(=O)NCCc3cccc(C)c3)ccc2C1O (centres undefined) was read as CapD inh 0.255 and AID504770 0.85.
For CC1CCN(c2nc3nonc3nc2Nc2ccc(F)cc2)CC1 the results were AID504770 1.35.
CCN(CC)c1ncnc2sc(C(=O)N(C)C3CCCCC3)c(C)c12 was read as CapD inh -0.475 and AID504770 0.3.
CC(C)C(C(=O)O)N1C(=O)c2ccc(C(=O)O)cc2C1=O (centres undefined) was read as CapD inh -0.05 and AID504770 -0.5.
CC1=CC(=O)C(N(C)c2ccccc2)=CC1=O was read as CapD inh -0.875 and AID504770 -0.95.
For O=C(CCc1n[nH]c(=O)[nH]c1=O)Nc1cccc(Br)c1 the results were AID504770 0.8.
For Cc1cc([N+](=O)[O-])ccc1N1C(=O)C2C3c4ccccc4C(c4ccccc43)C2C1=O (centres undefined) the results were CapD inh -0.32.
Screening CSc1nc(C)c2cc(C)ccc2n1 returned AID504770 -0.45.
`O=C(O)COCc1nc(-c2cnccn2)no1` gave CapD inh -0.275.
For O=C(c1ccco1)N1CCc2c([nH]c3ccccc23)C1 the results were CapD inh -0.165.
`CNC(=S)N(C)/N=C1/C(=O)N(Cc2c(Cl)cccc2Cl)c2ccccc21` gave CapD inh -1.27 and AID504770 1.2.
CC(=O)c1ccc(N2C(=O)/C(=C/c3ccc(-c4cc(Cl)ccc4Cl)o3)C=C2c2ccccc2)cc1 was read as CapD inh -0.215.
`Cc1ccc(NC(=O)c2ccc3noc(-c4ccccc4)c3c2)cc1F` gave CapD inh 0.635 and AID504770 0.8.
CN(CCCN1c2ccccc2CCc2ccccc21)C(=O)OCCCc1ccncc1 was read as CapD inh 1.59.
For CCOc1ccc(NC(=O)CSc2c[nH]c3ccccc23)cc1 the results were CapD inh -0.12 and AID504770 0.6.
O=C(Cc1ccc(NC2=NC3CS(=O)(=O)CC3S2)cc1)Nc1ccc(F)c(Cl)c1 (centres undefined) was read as CapD inh -0.315 and AID504770 -0.65.

Quoted at random: two records from the list.
CCN(CC)c1ncnc2sc(C(=O)N(C)C3CCCCC3)c(C)c12 was read as CapD inh -0.475 and AID504770 0.3.
Screening CSc1nc(C)c2cc(C)ccc2n1 returned AID504770 -0.45.

More structures follow:
Screening Cc1nc(Nc2nc3ccccc3o2)ncc1C(=O)Nc1ccccc1 returned CapD inh 0.09 and AID504770 -0.8.
`C=CCn1c(SCC(=O)Nc2ccc(C(=O)OC)cc2)nc2sc3c(c2c1=O)CCCC3` gave CapD inh -0.265.
For CCCc1ccc(S(=O)(=O)N2CCCN(C(C)=O)CC2)cc1 the results were CapD inh 0.385.
Screening Cc1ccc(-n2nc3c(c2NC(=O)c2ccc(S(=O)(=O)N4CCOCC4)cc2)CSC3)cc1 returned CapD inh -0.595.
Oc1ccccc1C=Nc1cccc2ccccc12 was read as CapD inh 19.2 and AID504770 -0.95.
For O=C(O)c1ccccc1-c1ccccc1C(=O)NCCN1CCNC1=O the results were CapD inh 0.59 and AID504770 0.35.
For O=C1C(=O)N(c2cccnc2)C(c2ccccc2)/C1=C(/O)c1ccccc1 (centres undefined) the results were CapD inh -1.44 and AID504770 -0.2.
Screening CC1=C(C(=O)OC(C)(C)C)C2(C(=O)Nc3ccc(Br)cc32)C(C#N)=C(N)O1 (centres undefined) returned CapD inh -0.27.
Cn1ccnc1C(=O)c1cc(SCC(=O)N2CCOCC2)nc2ccccc12 was read as AID504770 0.95.
For CC1CCCCN1C(=O)CCS(=O)(=O)c1ccc2c(c1)n(C)c(=O)c(=O)n2C (centres undefined) the results were CapD inh 2.67 and AID504770 -0.5.
Clc1cccc(Cl)c1COc1cccc(N2CCOCC2)c1 was read as CapD inh 0.135.
`NS(=O)(=O)c1ccccc1N1C(=O)CCC1=O` gave CapD inh -0.13 and AID504770 0.75.
`CC(C)(C)c1ccc(COC(=O)NCCOc2ccccc2)cc1` gave CapD inh -1.21.
`CC(C)(C)c1cc(CCC(=O)OCCOCCOC(=O)CCc2cc(C(C)(C)C)c(O)c(C(C)(C)C)c2)cc(C(C)(C)C)c1O` gave CapD inh -0.18.
Screening Cc1ccc(CN2CCCNC2=O)cc1 returned CapD inh 0.245 and AID504770 -0.9.
For COc1ccc(Cl)cc1NC(=O)COC(=O)CCC1CCCCC1 the results were CapD inh -0.025 and AID504770 -0.75.
For CC(=O)C1=NN(c2ccc(Br)cc2)C2(CCC(c3ccccc3)=NN2c2ccccc2)S1 (centres undefined) the results were CapD inh -0.02.
`CC(N=C1NS(=O)(=O)c2ccccc21)C(=O)OCc1nnc(-c2ccc(Cl)cc2)o1` (centres undefined) gave AID504770 -0.15.
For CCOC(=O)c1cc(Cl)c(NC(=O)C(F)(F)F)c(Cl)c1 the results were CapD inh -0.1 and AID504770 -0.6.
For Clc1cnc(-n2cccc2)nc1 the results were CapD inh -0.325 and AID504770 -1.15.
Screening CCN(CC)C(=O)Cn1cc(SCC(=O)Nc2ccccc2)c2ccccc21 returned CapD inh 0.335 and AID504770 -0.6.
CC(C)(C)c1ccc(Oc2cccc(/C=N/NC(=O)/C=C/c3ccc4c(c3)OCO4)c2)cc1 was read as CapD inh 3.17.
Screening COc1ccc(Br)cc1/C=N/N=C/c1cc(Br)ccc1OC returned CapD inh -0.255.
Screening CCCCCCC1C(C#N)=C(N)SC(N)=C1C#N returned AID504770 -0.8.
`CN1CCCCCC1=Nc1cccc(F)c1` gave CapD inh 0.42 and AID504770 0.25.
Screening CCOC(=O)c1ccc(N=c2sc(C(=O)OC)cc(=O)n2C2CC2)cc1 returned AID504770 -0.7.
CCOC(=O)N1CCC(NC(=O)c2ccc3c(c2)NC(=O)C2CCCN32)CC1 (centres undefined) was read as CapD inh 5.73 and AID504770 -0.6.
`CCOc1ccccc1NC(=O)NC1CC2CCCC(C1)N2Cc1nnnn1CCc1ccccc1` (centres undefined) gave AID504770 1.45.
`Cc1cccc(NC(=O)C(Cc2ccccc2)NS(=O)(=O)c2ccc3c(c2)c(=O)n(C)c(=O)n3C)n1` (centres undefined) gave CapD inh 0.17 and AID504770 0.55.
Screening O=C(O)CSC1CC(=O)N(c2cccc(Cl)c2)C1=O (centres undefined) returned CapD inh 1.32 and AID504770 0.
`CCOC(=O)c1ccc(-n2nnnc2C2(Nc3ccc(NC(C)=O)cc3)CCCCC2)cc1` gave CapD inh -0.525.
For Oc1nc(-c2cccc(C(F)(F)F)c2)n2ccncc12 the results were AID504770 0.55.
For CC(=O)n1nccc1-c1cc(-c2ccccc2)no1 the results were CapD inh 0.19 and AID504770 0.65.
For COc1cc(-n2cnc3cc(C(=O)NCCN4CCOCC4)ccc32)cc(OC)c1OC the results were CapD inh -0.125.
C[N+]1(C2CCC3CCC2C3=O)CCCC1 (centres undefined) was read as CapD inh -0.315 and AID504770 0.9.
Cc1ccccc1CN1CCC(CNc2nc(-c3ccccc3)no2)CC1 was read as CapD inh 0.06 and AID504770 0.2.

Brought forward from above: two compounds, then new ones.
C[N+]1(C2CCC3CCC2C3=O)CCCC1 (centres undefined) was read as CapD inh -0.315 and AID504770 0.9.
Cc1ccccc1CN1CCC(CNc2nc(-c3ccccc3)no2)CC1 was read as CapD inh 0.06 and AID504770 0.2.
COc1cc(C=NC2CCCCCCCCCCC2)ccc1OCc1ccccc1 was read as CapD inh -0.24.
Screening C=CCNc1ccc(F)c(F)c1N1CCCCCC1=O returned CapD inh -0.18 and AID504770 -0.1.
O=C1c2cccc3cccc(c23)C12OCCS2 (centres undefined) was read as CapD inh -0.64 and AID504770 0.3.
Screening COc1ccc(CNC(=O)CCCOc2ccccc2)cc1 returned AID504770 -0.9.
For CCn1c(O)c(N=Nc2c(C)n(C)n(-c3ccccc3)c2=O)sc1=S the results were AID504770 -0.05.
For Cc1c(C(=O)NCc2ccncc2)cnn1-c1ccc(F)cc1 the results were CapD inh -0.81 and AID504770 -0.85.
O=C(Sc1ccc(Cl)cc1)c1ccno1 was read as CapD inh -1 and AID504770 -0.55.
O=C(/C=C/c1cccs1)NCCN1C(=O)S/C(=C\c2cccs2)C1=O was read as AID504770 -0.5.
For CNC(=S)N/N=C(\C)c1cccc(C(F)(F)F)c1 the results were AID504770 -0.35.
`COC(=O)c1ccc2c(=O)[nH]c(CSc3nnc(N)s3)nc2c1` gave AID504770 0.6.
For COc1ccc(NC(=O)CSc2nnc(N)n2CC(=O)Nc2ccc(OC)cc2)cc1 the results were CapD inh -0.18 and AID504770 -0.55.
CC1(C)CC(=O)C2=C(C1)OC(N)=C(C#N)C2c1ccc(OCc2ccccc2)cc1 (centres undefined) was read as CapD inh -0.35.
`Cn1c(=O)c2cc(Br)ccc2n(C)c1=O` gave CapD inh 1.66 and AID504770 -0.3.
CCCN(CCC)S(=O)(=O)c1ccc(C(=O)NNC(=O)c2cc(OC)c(OC)c(OC)c2)cc1 was read as CapD inh 0.26.
`O=C(O)c1ccc2nc(-c3cccs3)c(-c3cccs3)nc2c1` gave CapD inh 0.96.
`O=C(Nc1ccccc1)Nc1ccc(Oc2ncnc3cc(Cl)ccc23)nc1` gave CapD inh -0.175 and AID504770 1.6.
CCC(=O)Nc1cccc(C(=O)N/N=C/c2csc([N+](=O)[O-])c2)c1 was read as CapD inh -0.89.
Screening COC(=O)c1nnn(-c2nonc2N)c1CSc1ccccn1 returned CapD inh 0.325 and AID504770 -0.25.
Screening CCSc1nnc(NC(=O)COc2ccc(Cl)cc2)s1 returned CapD inh inactive and AID504770 -0.6.
Screening O=C(NCc1ccco1)C1CCN(c2nc3ccccc3[nH]2)CC1 returned CapD inh -0.375 and AID504770 -0.9.
`CC(=O)N1c2ccccc2CCc2ccc(NC(=O)CCC3CCCC3)cc21` gave CapD inh 0.075.
CCOC(=O)N1CCC(NC(=O)CSc2nc3ccccc3n2S(=O)(=O)c2ccc(C)cc2)CC1 was read as CapD inh 0.11.
Screening O=S(=O)(/C=C/c1ccccc1)N1C=Cc2ccccc2C1c1c[nH]c2ccccc12 (centres undefined) returned CapD inh 30 and AID504770 0.85.
`O=C(CSc1nc2scc(-c3ccco3)c2c(=O)n1-c1ccccc1)Nc1ccccc1` gave AID504770 0.4.

Reprinted from above (four entries):
`CC(=O)N1c2ccccc2CCc2ccc(NC(=O)CCC3CCCC3)cc21` gave CapD inh 0.075.
CCOC(=O)N1CCC(NC(=O)CSc2nc3ccccc3n2S(=O)(=O)c2ccc(C)cc2)CC1 was read as CapD inh 0.11.
Screening O=S(=O)(/C=C/c1ccccc1)N1C=Cc2ccccc2C1c1c[nH]c2ccccc12 (centres undefined) returned CapD inh 30 and AID504770 0.85.
`O=C(CSc1nc2scc(-c3ccco3)c2c(=O)n1-c1ccccc1)Nc1ccccc1` gave AID504770 0.4.

New compounds follow:
CC(=O)Nc1ccc(N2COc3ccc(Cl)cc3C2)cc1 was read as CapD inh -0.255 and AID504770 -1.45.
`COc1cc(OC)nc(OC(C(=O)O)C(C)C)n1` (centres undefined) gave CapD inh -0.035.
CN(C)CCCNC(=O)c1cc(C(=O)c2c(Cl)cccc2Cl)c[nH]1 was read as CapD inh 0.52.
Screening NS(=O)(=O)c1ccc(CCNC(=O)C2(S(=O)(=O)c3ccc(Cl)cc3)CC2)cc1 returned CapD inh 0.045 and AID504770 0.1.
O=C(Cn1c(=O)cnc2ccccc21)NC(=O)NC1CCCCC1 was read as AID504770 1.25.
`Cc1nnc(SCCN2C(=O)c3ccccc3C2=O)[nH]c1=O` gave CapD inh -0.11 and AID504770 1.8.
For Cc1onc(-c2c(Cl)cccc2Cl)c1C(=O)N=CN(C)C the results were CapD inh 0.135 and AID504770 0.05.
`COc1ccc(S(=O)(=O)N2CCC(C(=O)NC(c3nc4ccccc4[nH]3)C(C)C)CC2)cc1` (centres undefined) gave AID504770 -0.5.
For Cc1[nH]c2ccc(C(=O)NCC3CCCO3)cc2c1C (centres undefined) the results were AID504770 0.45.
For CC(C)c1ccc(-c2csc3nc[nH]c(=O)c23)cc1 the results were CapD inh -0.745 and AID504770 0.25.
For O=c1[nH]ccn(-c2c(F)cccc2F)c1=O the results were CapD inh -0.92 and AID504770 1.15.
Screening O=C(N/N=C/c1cccc(OCc2ccccc2)c1)c1cc2ccccc2cc1O returned CapD inh 0.515.
For O=C(/C=C1\Sc2ccccc2NC1=O)NCCc1ccccc1 the results were CapD inh 0.255 and AID504770 0.25.
COc1ccccc1NC(=O)NC(C)(C)CC(C)(C)C was read as CapD inh -0.81 and AID504770 1.75.

High-throughput results: PubChem BioAssay, ICCB-Longwood Screening Facility, Harvard Medical School
